Source: PubChem BioAssay
PrP UTR inh = inhibition of PrP 5' UTR reporter expression; cell-based PrP 5' UTR mRNA reporter, plate reader; inhibition, % (test concentration not listed); 0.35% of 340,000 active;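 active = every replicate at 50% or more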;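 also: 0 = median of the neutral control wells; tested in H4 reporter cells; numbers are from one replicate; inactives centre near -14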
Bead autofluor = compound fluorescence in toxin protease inhibitor counterscreen. AID 624483. 3.1% of 360,000 active. compound autofluorescence counterscreen, microsphere flow cytometry; stronger effect = higher value. fluorescence intensity (no concentration beside the values);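 active = at least 3 SD above the mean of all compounds, about 16000 in these data; inconclusive = too few beads counted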;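 also: 100 nL of 1 mM stock went into each well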
Mtb hypoxia inh = PubChem AID 1159583; 0.1% of 300,000 active; M. tuberculosis hypoxia-regulated fluorescent reporter, fluorescence; fluorescence inhibition, % (concentration not given with the values);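 active = 35 to 45% if threefold the growth effect, above 45% if 1.5-fold the growth effect; inactive = the rest, general growth blockers included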;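 also: wells of about 50 µL received 100 nL stock; 0% = vehicle wells and 100% = reference inhibitor wells; whole bacteria with a GFP reporter of the hypoxia response; strong numbers were not always called active; many hits fall short of the cut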
ugtP null kill = growth inhibition of ugtP-null S. aureus, primary screen, RN4220 ugtP deletion, OD600. AID 1259309, 2017. 16 h; some inactives read as strong as hits. growth inhibition, % (concentration not given with the values). 0.54% of 330,000 active;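 active = z-score under -3 and OD600 up to 0.15 on both plates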;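 also: plate controls were untreated wells for no effect and antibiotic for full effect; wells of about 80 µL received 100 nL stock; the first replicate is given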
RN4220 kill = growth inhibition of S. aureus RN4220, primary screen, OD600 | 16 h | inhibition, % (test concentration not listed) | 0.33% of 330,000 active;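 active = z-score of -3 or lower and OD600 up to 0.18 on both plates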;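 also: plate controls were untreated cells for no effect and reference antibiotic for full effect; stock transfer was 100 nL into about 80 µL; one replicate is shown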
BJeLR lethal = MLPCN primary cell-based screen for lethality selective to Ras in HRASV12 cells; BJeLR (HRASV12) viability, CellTiter-Glo ATP luminescence, 48 h; reference of the scale not given here; inhibition, % (test concentration not listed); 0.17% of 300,000 active;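 active = replicate mean above 50%; inconclusive = above 50% but judged a plate artefact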;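 also: 50 nL library stock added to about 25 µL; numbers are from one replicate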
Mtb hypoxia inh growth = also measured in Mtb hypoxia inh; calls as there; growth inhibition, %; measured here: M. tuberculosis growth (absorbance);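 0% = vehicle and 100% = reference antibiotic; read after six days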
* marks the source's active call; other numbers are inactive results; ? = inconclusive; · = no result given; & = joins results of further samples.

SMILES | PrP UTR inh | Bead autofluor | Mtb hypoxia inh | Mtb hypoxia inh growth | ugtP null kill | RN4220 kill | BJeLR lethal
Nc1nn2c(-c3ccccc3)cc(=O)[nH]c2c1N=Nc1ccc(Br)cc1 | -29 | 2478 | 12 | 0 | 100* | 100* | ·
C=CCSc1nnc(NC(=O)Cc2ccc(OC)c(OC)c2)s1 | -11 | 4733 | 5 | -1 | 5 | 0.5 | -4
CCN(Cc1ccccc1)c1ccc(/C=N/NC(=S)NC(C)C)cc1 | -7 | 2412 | · | · | · | · | 0
CC(=O)c1ccc(N2CCN(S(=O)(=O)c3c(C)[nH]c(C)c3C(=O)N3CCCCC3)CC2)cc1 | 7 | 3832 | 9 | 3 | 7 | 1.4 | -17
CC(=O)Oc1cc(OC(C)=O)c2c(C)cc(=O)oc2c1 | -14 | 5150 | · | · | 1 | 0.4 | 11
O=[N+]([O-])c1ccccc1S(=O)(=O)N1CCN(Cc2ccccc2)CC1 | -12 | 4651 | -2 | 1 | 1 | -1.9 | -4
O=C(c1ccccn1)c1cc2ccccc2n1S(=O)(=O)c1ccccc1 | -36 | 2571 | · | · | · | · | 8
Cn1cccc1/C=N/NC(=O)c1ccccn1 | -26 | 4728 | · | · | · | · | 5
C#CCOCCOCCOCCNc1nc(N2CCN(C(=O)Cn3cc(CC(C)O)nn3)CC2)nc(N2CCN(C(=O)C(CCCCN)n3cc(CCC(=O)O)nn3)CC2)n1 (configuration not stated) | · | · | 9 | 11 | 4 | 4.2 | ·
COc1cc2c(cc1OC)[C@@H](NC(=O)C(C)C)[C@H](O)C2 | -4 | 3502 | -1 | 2 | -1 | -0.2 | ·
CSc1nc(Cl)c(C#N)c(-c2ccc(C)cc2)n1 | -10 | 8049 | 10 | 1 | 12 | 4.6 | 0
CCOCC(=O)Nc1ccc(S(=O)(=O)Nc2nccs2)cc1 | -27 | · | · | · | 4 | 2.7 | -6
CSc1ncccc1C(=O)OCC(=O)Nc1cccc(S(=O)(=O)N2CCOCC2)c1 | -20 | 4141 | 10 | 7 | -7 | 7.5 | ·
COC(=O)c1ccc(NS(=O)(=O)c2cc3c4c(c2)C(C)C(=O)N4CCC3)cc1 (configuration not stated) | -12 | ? | 2 | -1 | 6 | 11 | 5
CCS(=O)(=O)c1ccc(-c2csc(-c3ccccc3Cl)n2)c(Cl)c1Cl | -38 | 2151 | · | · | 0 | -1.1 | 2
CC(C)NC(=O)COC(=O)c1cccc(NS(=O)(=O)/C=C/c2ccccc2)c1 | -23 | 2404 | 5 | -1 | 14 | 2.9 | -6
Cc1c(NC(=O)CNCc2ccc3c(c2)OCO3)c(=O)n(-c2ccccc2)n1C | -4 | 4179 | -3 | -9 | -6 | -0.4 | 19
CCc1sc(C(=O)NCCCN2CCCC2=O)cc1Br | 1 | 5624 | -2 | -7 | 2 | 1.5 | 13
CSc1ccc(C#N)cc1NC(=O)c1cccnc1Cl | -1 | 4797 | 16 | -6 | 16 | 7.4 | 4
CCOc1ccc(CCNC(=O)C2CCN(S(=O)(=O)N3CC(C)CC(C)C3)CC2)cc1OCC (configuration not stated) | -10 | 5993 | 4 | 1 | -1 | -2.0 | 5

Individual results from the entries so far.
CSc1nc(Cl)c(C#N)c(-c2ccc(C)cc2)n1 in RN4220 kill = 4.6
CC(C)NC(=O)COC(=O)c1cccc(NS(=O)(=O)/C=C/c2ccccc2)c1 in BJeLR lethal = -6
CCOc1ccc(CCNC(=O)C2CCN(S(=O)(=O)N3CC(C)CC(C)C3)CC2)cc1OCC (configuration not stated) in Bead autofluor = 5993

Carrying on:
SMILES | PrP UTR inh | Bead autofluor | Mtb hypoxia inh | Mtb hypoxia inh growth | ugtP null kill | RN4220 kill | BJeLR lethal
COc1ccc(/C=C/C(=O)OCC(=O)NCCc2ccccc2)c(OC)c1 | -17 | 3482 | 4 | 5 | 22 | 4.9 | ·
CCCc1cc(NCCCN2CCOCC2)n2c(nc3ccccc32)c1C#N | -5 | 2875 | 0 | 18 | -1 | 0.8 | 0
Cc1ccccc1C(=O)NCCN=C1NS(=O)(=O)c2ccccc21 | -22 | 5767 | 9 | 3 | 13 | 4.4 | -8
CCN(CC)C(=O)CC(c1ccc(OC)cc1)c1c(O)cc(OC)cc1OC (configuration not stated) | 5 | 3677 | 2 | -2 | 13 | 9.8 | 3
O=C(O)c1cc(-c2cccc([N+](=O)[O-])c2)nc2ccccc12 | -21 | 4877 | 13 | 10 | 5 | 6.1 | 0
CCCN1CCN(C(=O)Cn2ncc3ccccc32)CC1 | -14 | 4195 | · | · | 2 | 1.0 | -1
CC(=O)c1cccc(NC(=O)COC(=O)c2ccc3c(c2)OCCO3)c1 | -13 | 4232 | 11 | -3 | 2 | 6.0 | -7
COc1ccc(CN2CCN(Cc3ccco3)CC2)cc1 | -5 | 4030 | -8 | -3 | 8 | 5.5 | -7
CN1C(=O)N(C)C2(c3ccccc3)Nn3c(s/c(=C/c4ccccc4)c3=O)=NC12c1ccccc1 (configuration not stated) | -7 | 2571 | · | · | · | · | -4
CC(=O)NC1=NN(C(C)=O)C2(S1)C(=O)N(C(C)C)c1ccc(C)cc12 (configuration not stated) | -19 | 6666 | 11 | -6 | 9 | 3.4 | 3
O=C1CN(C(=O)c2c(F)cccc2F)C(c2ccccc2)c2cc(Br)ccc2N1 (configuration not stated) | 2 | 3169 | -19 | 1 | -8 | 3.4 | -3
O=C(COc1ccc(Cl)cc1)N(c1ccccc1Cl)C1CN2CCC1CC2 (configuration not stated) | 12 | · | 8 | 1 | 3 | -0.8 | -4
Cc1ccc(S(=O)(=O)N2CCC(C(=O)OCC(=O)NCc3ccco3)CC2)cc1C | -8 | 4027 | -2 | -1 | 0 | 3.1 | 3
COc1ccc(NC(C)=O)cc1NC(=O)c1cccc(C(F)(F)F)c1 | -14 | 4452 | 1 | 3 | -1 | 1.6 | 7
O=C(c1cncc(Br)c1)N1CCN(S(=O)(=O)c2ccc(Cl)cc2)CC1 | -19 | 3660 | 2 | -6 | 1 | 2.4 | 4
COc1ccc(C(=O)Nc2ncc(C)s2)cc1S(=O)(=O)N1CCCC1 | -22 | 4216 | -6 | 3 | 6 | 0.3 | 7
O=C(NC(=S)Nc1ccc(CN2CCOCC2)cc1)c1ccc2c(c1)OCCO2 | -67 | · | · | · | 7 | 2.0 | 1
CN(CC(=O)N1CCCC1)S(=O)(=O)c1cccc(Cl)c1 | -14 | 6160 | 3 | -2 | 14 | 2.3 | 3
O=C(NCC1CCCO1)C1CCCN(S(=O)(=O)c2ccc(Cl)cc2)C1 (configuration not stated) | -37 | 4979 | 9 | 2 | 3 | 3.2 | -12
CC1=CC(=O)C2=C(C)CC(O)C3C(C)C(=O)OC3C12 (configuration not stated) | -8 | 2862 | -2&18 | 3&14 | -3&3 | 5.6&6.5 | 0
COCCNC(=O)C(c1ccc(C)o1)N(Cc1ccc(OC)cc1)C(=O)Cn1nnc2ccccc21 (configuration not stated) | -9 | 4643 | · | · | 0 | 2.5 | 2
COc1ccc2nc(SCc3nc(N)nc(Nc4ccccc4)n3)[nH]c2c1 | -10 | 2855 | -9 | -2 | 3 | 5.0 | -8
CS(=O)(=O)N1CCN(c2ccccc2NC(=O)c2ccc(-c3ccc(Br)cc3)o2)CC1 | -26 | 16514* | 6 | 5 | -6 | -5.5 | -7
O=C(COC(=O)c1ccc[nH]c1=O)c1ccc(Cl)s1 | -8 | 3322 | -1 | -10 | -4 | -4.8 | -11
Cn1c(-c2cccc(F)c2)nc2c1c(=O)[nH]c(=O)n2Cc1ccccc1 | -10 | 5110 | 18 | 9 | 8 | 2.6 | -6
COC(=O)c1ccccc1NC(=S)NC(=O)c1cccc2ccccc12 | -21 | 4249 | · | · | 5 | 11 | -3
Cc1ccc(C=NNc2cc(C)nc(NCc3ccccc3)n2)cc1 | · | · | 4 | 0 | -35 | -8.7 | ·
CCOC(=O)N1CCN(C(=O)Cc2ccc(-n3c(=O)[nH]c4ccccc4c3=O)cc2)CC1 | -89 | 4682 | 5 | 1 | 0 | 2.0 | -2
c1coc(-c2nn3c(Cn4nnc5ccccc54)nnc3s2)c1 | -18 | 5603 | 3 | 11 | -5 | 5.5 | 2
COc1cc(OC)c(NS(=O)(=O)c2cc(Br)cnc2N)cc1Cl | -29 | 5021 | 6 | 6 | -5 | 17 | 7
COc1ccc(CC(=O)Nc2ccc(-c3noc(-c4cccc(OC)c4)n3)cc2)cc1 | 10 | 2197 | · | · | -6 | 0.7 | 1
CC(C)C(=O)Nc1cc(S(=O)(=O)Nc2cccc(Cl)c2)ccc1Cl | -12 | 2258 | -6 | -2 | -11 | 5.1 | 9
CN(C)S(=O)(=O)c1cccc(NC(=S)NC(=O)C2CCCCC2)c1 | -4 | 2124 | 15 | 17 | 3 | -0.3 | -10
Cc1ccc(C2N(C)c3ccccc3-c3nc4ccccc4n32)o1 (configuration not stated) | -23 | 4185 | 4 | 6 | 5 | -2.5 | -6
CCC(C)C(=O)Nc1c2c(nc3c1CCC3)CCCC2 (configuration not stated) | -14 | 2332 | 16 | 4 | -6 | -14 | -2
CCC1(c2ccccc2)NC(=O)N(CC(=O)Nc2cccc(S(=O)(=O)N3CCCC3)c2)C1=O (configuration not stated) | -13 | 3795 | 7 | 1 | -6 | -2.7 | ·
O=C(O)c1ccc(/C=C(\c2nc3ccccc3[nH]2)c2nc3ccccc3s2)cc1 | -18 | 3674 | 18 | 5 | 5 | 8.1 | -4
Cc1cc(C)nc(NS(=O)(=O)c2ccc(NC(=O)C3CC3)cc2)n1 | -4 | 3145 | 17 | 6 | 12 | 1.9 | -6
CC1CCN(c2ccccc2NC(=S)NC(=O)c2ccc(-c3cccc([N+](=O)[O-])c3)o2)CC1 | -11 | 9312 | 1 | 6 | 9 | 1.5 | -1
COc1cc(/C=C(\C#N)c2nc(-c3cc4ccccc4oc3=O)cs2)ccc1O | -12 | 2074 | -11 | 0 | -17 | -3.9 | -15
CC(=O)Nc1cccc(S(N)(=O)=O)c1C | -17 | 4440 | 5 | -4 | 3 | 1.5 | 10
CCn1c(COc2cccc3cccnc23)nnc1SCC(=O)O | -31 | 5545 | · | · | 3 | 1.5 | -5
Cc1ccc(NC(=O)c2cccc(N3C(=O)CCC3=O)c2)nc1 | 4 | 3254 | 6 | 11 | 6 | 3.8 | 4
CC(NC(=O)COC(=O)CNS(=O)(=O)/C=C/c1ccccc1)c1ccccc1 (configuration not stated) | 1 | 8244 | 8 | 14 | 5 | -0.3 | ·
Nc1nc(CSC(=S)N2CCN(c3ccccc3)CC2)nc(Nc2ccccc2)n1 | -37 | 7626 | 0 | 0 | -14 | 1.7 | 13
CCC(C)(C)C(=O)Nc1ccc(OC)cc1[N+](=O)[O-] | 5 | 8206 | -3 | 6 | 4 | 4.4 | 4
Cc1ccc(S(=O)(=O)N2CCOCC2)cc1NC(=O)CN(C)C1CCS(=O)(=O)C1 (configuration not stated) | -20 | 3712 | · | · | · | · | -15
Cc1ccc(C)c(OCc2cc(C(=O)N(C)Cc3nccs3)no2)c1 | -28 | 4468 | 9 | 10 | -2 | 3.9 | -1
O=C(O)C(Cc1ccc(O)cc1)NC(=O)C(c1ccccc1)c1ccccc1 (configuration not stated) | · | · | 15 | 7 | 2 | 3.5 | ·
CCC(=O)c1ccccc1OCCN1CCN(Cc2ccccc2)CC1 | -37 | 4055 | 18 | 7 | 8 | 12 | 35
CCOC(=O)NC(=O)CSc1nnnn1-c1ccc(C)cc1 | -16 | 3773 | 0 | 2 | -8 | 12 | -9
Cc1cccc(NC(=S)N2CCC(c3nc4ccccc4o3)CC2)c1 | -4 | 4795 | 5 | 9 | 3 | 2.5 | -2

Only BJeLR lethal and Mtb hypoxia inh growth, for some of the entries so far:
mol	BJeLR lethal	Mtb hypoxia inh growth
O=C(COC(=O)c1ccc[nH]c1=O)c1ccc(Cl)s1	-11	-10
Cn1c(-c2cccc(F)c2)nc2c1c(=O)[nH]c(=O)n2Cc1ccccc1	-6	9
COC(=O)c1ccccc1NC(=S)NC(=O)c1cccc2ccccc12	-3	·
Cc1ccc(C=NNc2cc(C)nc(NCc3ccccc3)n2)cc1	·	0

The order is random; about 4% have a hit in one of these screens.
